Bm FixLJ act: B. multivorans fixK reporter activation; hit rate 0.3% among 29,000; z-score (test concentration not listed); B. multivorans fixK-promoter GFP reporter, 18 h; stronger effect = higher value; AID 1918990;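 active = replicate mean overnight rise in green fluorescent reporter signal, 3 or more SD over negative controls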;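 note: score is relative to vehicle wells of the plate; 300 nL library stock went into each well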
The depositor's hits bear a star. Not all compounds are listed; count on the stated rates, not on these rows.

SMILES | Bm FixLJ act
COc1ccc(S(=O)(=O)N2CCCN(CC(=O)Nc3ccc(NC(C)=O)cc3)CC2)cc1 | 1.1
CCC(=O)N1CCc2cc(Br)cc(S(=O)(=O)N3CCCC(C(=O)Nc4cccc(F)c4)C3)c21 (configuration not stated) | -0.1
CCCN(C(=O)c1cc2c(s1)-c1ccccc1OC2)c1ccc(C(C)C)cc1 | 1.5
CCCCN(CC)CCCNC(=O)C1CCN(c2nc3ccc(CC)cc3s2)CC1 | -0.96
CC(C)Cn1cncc1CNS(=O)(=O)c1ccccc1F | -1.6
O=C(CCC1N=C2c3ccccc3N=C(SCc3ccccc3Cl)N2C1=O)NCCc1ccccc1 (configuration not stated) | 1
COc1ccc(OC)c(NC(=O)Cn2cc(C(=O)c3ccccc3F)c3ccccc32)c1 | 0.26
Cc1nn2c3c(cnc2c1-c1ccc(F)cc1)C(=O)CC(c1ccccc1)C3 (configuration not stated) | 0.11
CCOC(=O)C1=C[C@@H](OC(CC)CC)[C@H](NC(C)=O)[C@@H](N)C1 | -1.8
COc1ccccc1OCc1cc(C(=O)N2CCC(=O)NCC2C)n[nH]1 (configuration not stated) | -0.58
CCc1nc2sc3c(N4CCC(C)CC4)ncnc3c2c2c1CCCC2 | 0.83
O=C(Cn1nc(-c2ccc(Cl)cc2)c2ccccc2c1=O)Nc1cccc(C(F)(F)F)c1 | -0.44
Cn1c(=O)c(=O)n(C)c2cc(S(=O)(=O)N3CCCC3C(=O)Nc3cccc(F)c3)ccc21 (configuration not stated) | -0.27
Cc1ccc2c(=O)c(C(=O)c3cccc(Cl)c3)cn(CC(=O)NCc3ccc(F)cc3)c2n1 | -2.8
CCc1nn(CC(=O)NCCc2ccc(OC)cc2OC)c(=O)c2cc3occc3n12 | -2.1
Cc1ccc(Cn2c(CN(C)C3C[C@@H]4CNC(=O)C[C@H]4C3)nc3ccccc32)cc1 (some centres not stated) | -2.5
CSc1ccc(-c2nc3c(C)cccn3c2Nc2ccc3c(c2)OCCO3)cc1 | 1.8
O=C(O)c1ccnc(-c2ccc(C(=O)NCCCN3CCCC3=O)cc2)c1 | -1.1
COc1ccc(NC(=O)Cc2c(C(=O)O)[nH]c3ccccc23)cc1OC | 1.4
CC(NS(=O)(=O)c1ccsc1C(=O)O)c1ccccc1-n1cccn1 (configuration not stated) | -0.21
COc1ccc(S(=O)(=O)N2Cc3ccccc3CC2C(=O)Nc2cccc(C)c2)cc1OC (configuration not stated) | -0.99
CCn1cc(/C=C(\NC(=O)c2ccc(C)cc2)C(=O)NCCCn2ccnc2)c2ccccc21 | -2.9
Cc1cc(C)cc(OCc2cc(=O)n3c(-c4ccccc4)csc3n2)c1 | -1.2
CC1=C(C(N)=O)C(c2ccc(F)cc2)n2nc(-c3ccc(N(C)C)cc3)nc2N1 (configuration not stated) | -1.5
O=C(CCC(=O)N1CCCC2(CCc3cn[nH]c32)C1)N1CCCCCC1 (configuration not stated) | -1.2
Cc1ccc2c(=O)cc(C(=O)Nc3sc4c(c3C(=O)NCc3ccco3)CCC4)oc2c1 | 0.67
COC(=O)c1ccccc1NC(=O)Cn1cnc2sc(C)c(S(=O)(=O)N3CCC(C)CC3)c2c1=O | -1.8
Cc1ccc(C(C)NC(=O)CN(Cc2cnn(C)c2)C2CC2)cc1 (configuration not stated) | -0.81
CCCSc1ccc(NC(=O)N(C)CCCn2cccn2)cc1 | -1.2
Cc1cc(Cl)ccc1OCC(=O)N(Cc1ccc(N(C)C)cc1)CC1CCCO1 (configuration not stated) | 0.85
Cn1ncc2cc(NC(=O)N3CC4CCC(C3)C4O)ccc21 (configuration not stated) | -2.8
CCOC(=O)CSc1nc(-c2ccc(F)cc2)cc(C(F)(F)F)c1C#N | -4
O=C(CCc1cn[nH]c1)N(CCc1ccccc1)Cc1cccnc1 | -1.2
CCCc1cc(=O)[nH]c(Nc2ccc(OCC)cc2)n1 | -1.4
CCOC(=O)N1CCN(c2ncc3c(n2)CC(c2ccc(OC)c(OC)c2)CC3=O)CC1 (configuration not stated) | -0.84
CCC(C)NC(=O)c1sc2nc(C)c(C(=O)Nc3ccc(C)cc3C)c(-c3ccc(NC(C)=O)cc3)c2c1N (configuration not stated) | -1.4
CCn1c(SCC(=O)Nc2cc(C)ccc2F)nnc1-c1ccccc1O | -1
Nc1ccc(C(=O)Oc2ccccc2)c(O)c1 | -1.2
COCCN1C(=O)c2[nH]nc(-c3ccccc3O)c2C1c1ccc(OCc2ccccc2)c(OC)c1 (configuration not stated) | -0.32
CC1=C(C(=O)Nc2ccc(Cl)cc2)C(c2ccc(C(F)(F)F)cc2)n2nnnc2N1 (configuration not stated) | -1.3
CCN1CC2(CCN(Cc3noc(-c4ccc(C)cc4)n3)CC2)CC1=O | -2.3
CCOc1ccc(NC(=O)CNS(=O)(=O)c2ccc(Br)s2)cc1 | -1.3
Cc1nc2ccc(C(=O)NCCNC(=O)c3cccnc3)cc2s1 | -1.3
CCCCN(CCCNC(=O)c1cc(Nc2cccc(SC)c2)nc2ccccc12)Cc1ccccc1 | 3.2*
O=C1NCC(=O)N2CCN(C(=O)Nc3ccccc3Oc3ccccc3)CC12 (configuration not stated) | -0.51

Reprinted at random: 3 records from the list
SMILES | Bm FixLJ act
CCN1CC2(CCN(Cc3noc(-c4ccc(C)cc4)n3)CC2)CC1=O | -2.3
Cn1ncc2cc(NC(=O)N3CC4CCC(C3)C4O)ccc21 (configuration not stated) | -2.8
CCC(C)NC(=O)c1sc2nc(C)c(C(=O)Nc3ccc(C)cc3C)c(-c3ccc(NC(C)=O)cc3)c2c1N (configuration not stated) | -1.4

Going on with the list:
SMILES | Bm FixLJ act
CCOc1ccccc1N(CC)C(=O)c1ccc2c(=O)n3c(nc2c1)CCCCC3 | 0.29
Fc1ccc(NCc2ccccc2-c2nnc(-c3ccccc3Cl)o2)cc1 | -1.4
CCOC(=O)c1ccc(NC(=O)CN(c2ccc(C)cc2)S(=O)(=O)c2c(C)noc2C)cc1 | 0.17
CCOC(=O)c1nc(Nc2ccc(OC)cc2)c2ccccc2n1 | -0.14
COc1ccc(C(=O)N(C)Cc2cccc3cnccc23)c(OC)n1 | -0.43
O=S(=O)(c1ccc(Cl)cc1)c1nc(-c2ccccc2Br)oc1N1CCOCC1 | 1.1
Cc1cccc(-c2nc(CN3CCCC(C(=O)N4CCN(c5cc(Cl)ccc5C)CC4)C3)c(C)o2)c1 (configuration not stated) | -0.34
CCN1CCC2(CCC1=O)CN(Cc1nc(CCOC)no1)CCN2C (configuration not stated) | 0.01
CCn1ncnc1CN1CCC(C(O)Cc2ccccc2)CC1 (configuration not stated) | 0.09
CC[C@H]1OC(=O)C[C@@H](O)[C@H](C)[C@@H](O[C@@H]2O[C@H](C)[C@@H](O[C@H]3C[C@@](C)(O)[C@@H](O)[C@H](C)O3)[C@H](N(C)C)[C@H]2O)[C@@H](CC=O)C[C@@H](C)C(=O)/C=C/C(C)=C/[C@@H]1CO[C@@H]1O[C@H](C)[C@@H](O)[C@@H](OC)[C@H]1OC | -1.3
O=C(C1CCCN(S(=O)(=O)c2cccc3nonc23)C1)N1CCN(c2cccc(C(F)(F)F)c2)CC1 (configuration not stated) | -0.35
O=C(NCc1cc2n(n1)CCN(CC=Cc1ccc(F)cc1)C2)C1CCC1 | -0.05
COc1ccc(Cn2c(NCC(C)C)nc3c2c(=O)n(C)c(=O)n3C)cc1 | -1.9
Nc1nc(=S)c2[nH]cnc2[nH]1 | -5.3
COc1ccccc1NC(=O)Cn1c(=O)n(Cc2ccco2)c(=O)c2cccnc21 | -2.2

Compounds above containing a thiophene ring, fused or not (seven):
SMILES | Bm FixLJ act
CCCN(C(=O)c1cc2c(s1)-c1ccccc1OC2)c1ccc(C(C)C)cc1 | 1.5
CCc1nc2sc3c(N4CCC(C)CC4)ncnc3c2c2c1CCCC2 | 0.83
CC(NS(=O)(=O)c1ccsc1C(=O)O)c1ccccc1-n1cccn1 (configuration not stated) | -0.21
Cc1ccc2c(=O)cc(C(=O)Nc3sc4c(c3C(=O)NCc3ccco3)CCC4)oc2c1 | 0.67
COC(=O)c1ccccc1NC(=O)Cn1cnc2sc(C)c(S(=O)(=O)N3CCC(C)CC3)c2c1=O | -1.8
CCC(C)NC(=O)c1sc2nc(C)c(C(=O)Nc3ccc(C)cc3C)c(-c3ccc(NC(C)=O)cc3)c2c1N (configuration not stated) | -1.4
CCOc1ccc(NC(=O)CNS(=O)(=O)c2ccc(Br)s2)cc1 | -1.3

Remaining list, next part
SMILES | Bm FixLJ act
O=C(Cc1ccccc1)Nc1c(C(=O)c2ccccc2)oc2ccccc12 | 3.1*
CCc1ccc(Nc2nnc(-n3nc(C)cc3C)c3ccccc23)cc1 | -0.07
CCc1cccc(C)c1NC(=O)CSc1nc2ccccc2nc1N1CCOCC1 | -1.6
Cc1ccc(-c2nc3c(c(SCC(=O)N4CCCCC4)n2)Cc2cc(C)ccc2O3)cc1 | -0.96
O=C(Cn1nc(C(F)(F)F)c2c1CCC2)Nc1ccc(Cl)cc1 | -2.1
Cc1cccc(-c2noc(CCCC(=O)NCc3ccco3)n2)c1 | -2.9
O=C(c1ccc2c(c1)N(Cc1ccc(F)cc1)C(=O)c1ccccc1S2(=O)=O)N1CCN(Cc2ccccc2)CC1 | 0.63
CC(C)n1cnnc1CN(C)Cc1cccc(-n2cccn2)c1 | -1.9
Cc1oc(-c2cccc(Cl)c2)nc1CS(=O)(=O)CC(=O)NC(C)CCc1ccccc1 (configuration not stated) | -0.64
CCN(CC)c1cc(C)c2cc(NC(=O)c3ccc(OC)c(OC)c3)ccc2n1 | -2.2
OCCNc1nc(NCC2CCCCC2)cc(C2CCOC2)n1 (configuration not stated) | -0.59
O=C(NC1CCCN(C(=O)c2ccco2)C1)N1CCc2c(Cl)cccc2C1 (configuration not stated) | -1.6
COc1cc(C2N=C(N)Nc3nc4ccccc4n32)ccc1OCC(=O)O (configuration not stated) | -1.5
Cc1c(NC(=O)Nc2ccc(Cl)c(C(F)(F)F)c2)c(=O)n(-c2ccccc2)n1C | 2.9
Cc1cccc(OC(C)(C)C(=O)N2CC(O)C(Cc3cnccn3)C2)c1 (configuration not stated) | -0.42
CCN(C(=O)Cn1c(=O)oc2cc(S(=O)(=O)N3CCCC3)ccc21)c1cccc(C)c1 | -1.2
CCN(C(=O)c1cc2c(=O)oc3ccc(C)cc3c2s1)c1cc(OC)ccc1OC | -0.1
CN(CCOc1cccc(Cl)c1)C(=O)CCCc1cn[nH]c1 | -1.9
CC(C)c1nnsc1CNC(=O)N(Cc1ccsc1)CC1CCCO1 (configuration not stated) | -1.4
Cc1ccc(C(=O)N2CCC3(CCC(=O)N(C4CCCC4)C3)CC2)cc1O | 0.34
COc1cccc(CNC(=O)CCCn2ncn3c(cc4occc43)c2=O)c1OC | -0.44
COc1cc(NC(=O)c2ncn(-c3ccccc3)n2)cc(OC)c1 | -2.1
COc1ccc(C(=O)Nc2ccc(-c3nc4cc(C)ccc4o3)c(O)c2)cc1 | -0.33
CCc1c(C)nn(CC(=O)N2CC(O)C(Cc3ccnc4ccccc34)C2)c1C (configuration not stated) | 0.69
O=C(Cn1ncc2c(=O)oc3ccccc3c21)N1CCN(c2ccc(Cl)cc2)CC1 | -0.35
Cc1ccc2oc3c(c(=O)c2c1)C(c1ccccc1F)N(CCCN(C)C)C3=O (configuration not stated) | -1.5
COc1ccc(OC)c(C2CC(=O)c3c([nH]c(C(=O)OCC4CCCCC4)c3C)C2)c1 (configuration not stated) | -0.3
CCN(C(=O)c1cc2c(=O)n3cccc(C)c3nc2s1)c1ccc(C)c(C)c1 | -1.8
Cc1ccc(NC(=O)Cn2nc(C(F)(F)F)c3c2CCC3)cc1C | -0.57
Cc1cccc(C(=O)Nc2sc3c(c2C(=O)Nc2ccccc2)CCC3)c1 | -0.59

At a glance, part of the list above:
SMILES | Bm FixLJ act
CCN(C(=O)Cn1c(=O)oc2cc(S(=O)(=O)N3CCCC3)ccc21)c1cccc(C)c1 | -1.2
CCN(C(=O)c1cc2c(=O)oc3ccc(C)cc3c2s1)c1cc(OC)ccc1OC | -0.1

(list continues)
SMILES | Bm FixLJ act
CC[C@@]1(C(=O)O)CC(C(=O)NCCCO)C(c2ccc(OC)cc2)N1C (some centres not stated) | 0.23
Cc1cc(C(=O)NC(c2cnc3ccccc3c2)C2CC(O)C2)n(C)n1 (configuration not stated) | -2.5
COc1cc2c(-c3cccc(Cl)c3)nc3c(c(C)nn3-c3ccccc3)c2cc1OC | -0.09
O=C(Cn1cc(S(=O)(=O)c2ccc(F)cc2)c(=O)c2cc3c(cc21)OCO3)Nc1ccccc1 | 0.05
CCOc1ccc(NC(=O)Cn2c(=O)oc3cc(S(=O)(=O)NC4CCCC4)ccc32)cc1 | -0.78
Cc1ccccc1NC(=O)C1CCN(C(=O)c2ccc(F)cc2)CC1 | -2.2
Cc1nnnn1CCC(=O)N(C)Cc1nc2ccc(F)cc2[nH]1 | -0.66
CCN1CC(CN(C)C(=O)c2ccc(-c3cnn4ccccc34)cc2)CC1=O (configuration not stated) | -0.21
Cc1ccc(NC(=O)c2c(C)oc3ccc(O)c(CN4CCCC4)c23)c(C)c1 | -1.7
CCc1ccc(S(=O)(=O)c2c(C(=O)c3ccccc3)cnc3ccc(CC)cc23)cc1 | -0.87
Cc1ccc(CNC(=O)C(CC(C)C)NS(=O)(=O)c2ccc3c(c2)oc(=O)n3C)cc1 (configuration not stated) | 0.14
CCOC(=O)C1=C(CN2CCN(c3ccccc3F)CC2)NC(=O)NC1c1ccc(Cl)cc1 (configuration not stated) | -0.19
Cc1nnc(NC(=O)c2nc(SC(C)C)ncc2Cl)s1 | -0.4
Cc1ccc(CCNC(=O)c2cc3sccc3n2Cc2ccc(C)cc2)cc1 | 0.34
CC(Cc1cnccn1)NC(=O)c1cccc(Cn2cccn2)c1 (configuration not stated) | -0.87
Cc1ccc(C)c(N2CCN(CCCNC(=O)c3ccc4nc(N5CCCCC5)sc4c3)CC2)c1 | -0.06
COc1ccc(Cl)cc1C1CC(=O)Nc2cc3c(cc21)OCCO3 (configuration not stated) | -0.54
CC(=O)Nc1ccc(C2Nc3c(C)cc(C)cc3-c3cc(C)nn32)cc1 (configuration not stated) | 0.74

Bioassay records: PubChem BioAssay, ICCB-Longwood Screening Facility, Harvard Medical School
